Screens: PubChem BioAssay, several laboratories
CSC inhib = cancer stem cell inhibition | cancer stem cell-like cells viability, luminescence | inhibition, % at 7.5 µM | hit rate 1.1% among 300,000 | AID 2717;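 active = mean at 75% or more and at least half the replicates too; inconclusive = mean and replicates disagree; tested in HMLE shEcad cells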;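 note: 0% = median of negative and 100% = median of positive control wells; the first replicate is given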
Rce1 inh = inhibitors of yeast Ras-converting enzyme. Q03530. yeast membranes, quenched prenylated peptide cleavage fluorescence. calls only. hit rate 0.27% among 290,000. AID 2563;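 active = fall in fluorescence gain of 50% or more versus controls, with final raw signal at or below 3038400; inconclusive = same 50% fall but final raw signal above 3038400; inactive = fall in fluorescence gain under 50%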;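 note: plate controls were neutral control wells for no effect and wells lacking membranes for full effect; tested at 10 µM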
Target sequence (Q03530 whole entry, looked up): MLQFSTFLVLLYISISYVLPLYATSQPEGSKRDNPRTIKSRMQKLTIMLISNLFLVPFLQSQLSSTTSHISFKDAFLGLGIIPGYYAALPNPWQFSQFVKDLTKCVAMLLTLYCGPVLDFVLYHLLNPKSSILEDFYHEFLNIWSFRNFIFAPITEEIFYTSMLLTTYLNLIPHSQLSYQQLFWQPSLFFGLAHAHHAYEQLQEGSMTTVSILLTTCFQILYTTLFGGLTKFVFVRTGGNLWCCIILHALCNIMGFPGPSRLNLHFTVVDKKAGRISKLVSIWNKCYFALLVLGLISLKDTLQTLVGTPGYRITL
Env fusion inh = inhibitors of HIV Env-mediated cell fusion. HeLa-JRFL Env/CEM21 cell fusion, luciferase. inhibition, % at 12.3 µM. hit rate 1.1% among 360,000. AID 651610;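 active = mean replicate inhibition score of at least 50 and every replicate individually at or above 50; inconclusive = only one of the two criteria met; inactive = mean below 50 and not all replicates reaching 50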;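 note: 0% = plate neutral controls and 100% = maraviroc near 300 nM; one replicate is shown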
eIF4H inh = inhibitors of RNA binding by human eIF4H. Q15056. eIF4H fluorescence polarization binding assay. inhibition, % at 35 µM. hit rate 0.94% among 290,000. AID 2012;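 active = 50% or more with normal probe brightness, or confirmed in later tests; inconclusive = above 50% with abnormal brightness, or retests that disagree; inactive = below 50% or failed in later tests; about a fifth of its hits are not listed in these tables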;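 note: calls also rest on retests at 20 µM and on dose response follow-up; 0% = protein and probe with vehicle and 100% = probe without protein; strong numbers were not always called active; many hits fall short of the cut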
PABP FP inh = PABP-poly(A) binding inhibition. PABP-poly(A) RNA binding, fluorescence polarization. AID 2014. P11940. hit rate 1% among 290,000. inhibition, % at 35 µM;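 active = 50% or more with normal probe brightness, or confirmed in later tests; inconclusive = above 50% with abnormal brightness, or retests that disagree; inactive = below 50% or failed in later tests; about a fifth of its hits are not listed in these tables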;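 note: calls also rest on retests at 20 µM and on dose response follow-up; controls were probe without protein and protein plus probe with vehicle; some compounds called inactive have numbers as strong as hits; many hits fall short of the cut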
MT1-MMP act inh = inhibitors of human MT1-MMP activation; P50281; HT1080 RFP-PRO-GFP cells, GFP/RFP ratio fluorescence, overnight; percent of plate control window, DMSO zero; GFP/RFP ratio change, % at 20 µM; hit rate 0.061% among 360,000; AID 651647;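 active = GFP/RFP ratio change of at least 30% with cell ATP level not reduced by more than half and red fluorescence within 50% of control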; note: strong numbers were not always called active
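system = RFP-PRO-GFP reporter HT1080 cells | dosing = 20 µM single dose, 1% DMSO | timing = overnight cell settling, then overnight compound exposure, 37 °C, 5% CO2 | read-out basis = GFP/RFP fluorescence ratio | controls = DMSO and RFP-L50D-GFP cell wells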
UUG fidelity = modulators of start codon recognition fidelity in yeast; S. cerevisiae UUG-firefly luciferase reporter, luminescence/redox ratio; activity score, % at 18.7 µM; hit rate 0.13% among 350,000; AID 602363;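 active = replicate mean at a twofold rise or more, about +100% in these data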;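 note: firefly luciferase made from a UUG start codon reports start codon fidelity; reporter light over untreated wells divided by growth signal over untreated wells; some hits fall short of that in this replicate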
eIF4H inh retest = recorded beside eIF4H inh, whose call it bears; inhibition, %; compound at 20 µM; confirmation average;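 mean of two retest wells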
PABP FP inh retest = further read-out of PABP FP inh, marked with its call; inhibition, %; compound at 20 µM; confirmation repeats;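 mean of two retest wells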
MT1-MMP act inh RFP = also measured in MT1-MMP act inh; calls as there; RFP signal change, %; measured here: RFP expression control read;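 0 = vehicle wells; hits needed this value within 50% of zero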
* marks the source's active call; other numbers are inactive results; i = inactive; ? = inconclusive; . = not tested or not shown; & = joins results of further samples; [ ] = remark or other dose. An excerpt; count on the stated rates, not on these rows.

Start of the data: the first 3 entries (preview)
SMILES	CSC inhib	Rce1 inh	Env fusion inh	eIF4H inh	PABP FP inh	MT1-MMP act inh	MT1-MMP act inh RFP	UUG fidelity	others
COC(=O)Cc1cc(C)cc2c(=O)cc(-c3ccoc3)oc12	1.9	i	5.5	.	.	-67.0	4.6	-12.7
COc1cc2c(cc1OC)CN(C(=O)c1cc(Cl)nc(Cl)c1)CC2	0.7	i	12.8	5.9	1.5	4.8	4.3	-4.0
O=C(Nc1ccc(OC(F)(F)F)cc1)Oc1ccccc1N1CCCCC1	24.7	i	5.2	-6.1	-9.5	1.6	1.8	5.3

The whole of this part, from the first entry:
SMILES	CSC inhib	Rce1 inh	Env fusion inh	eIF4H inh	PABP FP inh	MT1-MMP act inh	MT1-MMP act inh RFP	UUG fidelity	others
COC(=O)Cc1cc(C)cc2c(=O)cc(-c3ccoc3)oc12	1.9	i	5.5	.	.	-67.0	4.6	-12.7
COc1cc2c(cc1OC)CN(C(=O)c1cc(Cl)nc(Cl)c1)CC2	0.7	i	12.8	5.9	1.5	4.8	4.3	-4.0
O=C(Nc1ccc(OC(F)(F)F)cc1)Oc1ccccc1N1CCCCC1	24.7	i	5.2	-6.1	-9.5	1.6	1.8	5.3
O=C(Nc1cccnc1)c1ccc(COc2ccccc2Br)cc1	90.0*	i	-24.3	-1.7	-10.2	-6.0	-11.3	-19.7
CCOC(=O)c1cnc(SCc2nc(N)nc(Nc3ccc(F)cc3)n2)nc1N	3.3	.	-48.0	0.6	3.5	-20.3	-18.4	-17.1
O=C(CCN1C(=O)c2ccccc2C1=O)NCCC1=CCCCC1	6.2	i	-22.6	-7.9	-10.2	-0.2	3.1	15.0
N#Cc1nc(Cc2ccccc2)oc1NCc1ccccc1	9.5	i	-4.6	-14.5	0.4	0.2	-5.5	-36.5
CN(CCc1ccccn1)C(=O)c1ccc(OC2CCN(Cc3ccccn3)CC2)cc1	27.3	i	-13.8	0.8	0.1	0.8	3.1	-16.5
CCc1ccc2c(c1)Sc1ccccc1CC2N1CCN(C)CC1 (configuration not stated)	35.2	i	-39.1	.	.	-10.9	-11.3	-2.9
Cc1nnc(SC(C)C(=O)NC2CCCc3ccccc32)n1-c1ccccc1 (configuration not stated)	-10.4	i	0.1	10.2	5.6	4.0	5.1	.
CCOC(=O)c1nn(-c2ccc(C)c(C)c2)c(=O)c2c(N)scc12	-4.2	.	43.2	-1.5	26.3	12.2	5.4	-12.0
C#CCCOC(=O)N1C2=NC(C(=O)OC)=C(C(=O)OC)[C@@H]3Nc4ccccc4[C@]23C[C@H]1C(=O)OC	3.1	i	-10.6	.	.	0.1	0.8	-8.0
COc1cc(NC(C)=O)c2ncccc2c1NC(C)=O	-3.9	i	0.2	1.5	13.5	-1.4	-0.4	-3.7
CN1CCN(C(=O)/C(C#N)=C/c2ccc(OC(F)F)cc2)CC1	.	.	5.4	-1.7	10.5	1.9	1.2	-21.1
Cc1noc(C)c1-c1ccc2nc[nH]c(=O)c2c1	-3.7	i	28.3	.	.	4.3	6.0	-10.1
COc1ccc(Br)c(-c2nc(CS(=O)(=O)c3ccc(F)cc3)no2)c1	-9.0	i	-2.5	-9.5	10.6	1.2	-6.7	.
Cc1csc(NC(=O)c2ccc(S(=O)(=O)N3CCCC3)cc2)n1	-3.9	i	-17.7	-1.9	-16.1	-6.2	-5.5	-12.7
Cc1ccc(Cn2ccc(NC(=O)c3noc4c3CCc3ccccc3-4)n2)cc1	-7.8	i	-57.9	-0.3	6.1	1.2	-0.8	.
COc1cccc(C(=O)N2C(C(C)C)COc3cc(Br)ccc3S2(=O)=O)c1 (configuration not stated)	.	.	-20.3	.	.	-5.3	1.2	-15.6
Cc1cccc2nc3ccccc3cc12	-17.6	i	-16.9	.	.	-0.4	1.5	-7.6
CCn1cc(S(=O)(=O)NCCc2ccc(F)cc2)cn1	-7.1	i	.	9.9	-3.6	-2.4	-1.0	-17.9
COc1cccc(-c2nnc(Nc3nc4c(F)cccc4s3)o2)c1	52.9	i	-80.6	19.0	17.5	11.2	1.8	-7.5
COC(=O)c1sc(S(=O)(=O)N2CCN(c3ccc(OC)cc3)CC2)c(C(=O)OC)c1C	7.4	i	27.9	4.2	-10.0	0.8	-9.0	-9.7
COc1ccc(CNC(=O)C(c2ccco2)N(C(=O)Cc2cccs2)c2cccnc2)cc1 (configuration not stated)	-8.1	i	1.6	76.8*	26.3	-3.8	1.6	.	eIF4H inh retest=71.0*;PABP FP inh retest=14.0
CCS(=O)(=O)c1nc(S(=O)(=O)c2ccc(Cl)cc2)c(NCc2ccco2)s1	.	i	-15.5	-6.2	-11.9	1.0	4.1	.
COc1ccc(N2C(=O)c3ccc(C(=O)Nc4ccccc4OC)cc3C2=O)cc1	-10.4	i	11.3	17.6	4.8	1.9	-2.5	-18.9
CCOc1ccccc1N(C)C(=O)c1nn(-c2ccc(OC)cc2OC)c(=O)c2ccccc12	-12.3	i	9.2	6.0	5.0	-3.7	-1.1	23.8
Cc1ccc(N=Nc2c(N)nn3c(C)cc(C)nc23)cc1	.	i	-85.4	-7.4	7.9	5.8	0.4	-4.9
CCOc1cc(C2C(C(=O)c3ccco3)=C(O)C(=O)N2CCc2ccccc2)ccc1O (configuration not stated)	5.3	i	-19.6	0.8	9.7	1.1	5.6	-4.0
COc1ccccc1S(=O)(=O)N(C)C[C@H]1OCc2cn(nn2)CCCC(=O)N([C@H](C)CO)C[C@@H]1C	.	.	17.2[16.7 µM]	.	.	0.7	6.5	-8.4&-11.7&3.3
CCOc1ccc(S(=O)(=O)NCCC(=O)N2CCCN(C)CC2)cc1	23.6	i	.	-0.5	9.1	-3.6	-0.2	0.9
Cc1cc(NC(=O)c2cc(-c3ccco3)on2)n(-c2ccccc2)n1	-8.8	i	.	13.0	-6.4	-9.5	-3.0	.
COc1ccc(/C=N/Nc2ncnc3scc(-c4ccccc4)c23)cc1OC	7.5	i	13.0	15.1	-1.0	0.0	-10.4	-31.4
CCCCn1c(N)c(-c2nc3ccccc3o2)c2c([N+](=O)[O-])nn(C)c(=O)c21	-10.9	i	8.4	40.6	4.5	5.1	2.5	-16.0
Cc1ccc(C)c(N(Cc2cc3ccc(C)cc3[nH]c2=O)C(=O)c2ccco2)c1	.	i	-14.6	-1.2	11.5	2.2	-0.2	-14.3
COC(=O)[C@@H]1C[C@]2(OC(=O)c3ccccc3)C=CC(=O)C[C@@H]2N1C(=O)OCc1ccccc1	75.6*	i	-22.0	-13.3	2.9	-0.9	-11.7	-12.8
O=C(CN1CCOCC1)Nc1ccc(F)cc1	-12.8	i	-2.9	0.6	37.6	-5.9	-1.9	-29.7
Clc1ccc(C2=Nn3c(Cn4nnc5ccccc54)nnc3SC2)cc1	-5.2	i	14.9	-8.3	-8.0	3.6	1.4	-3.8
COCCNc1c2c(c(C#N)c3nc4ccccc4n13)CCCC2	-3.8	i	35.5	15.7	6.9	-2.7	-3.7	.
CCSc1cc(N2CCCC2)nc(-c2ccc(F)cc2)n1	-9.0	i	.	0.3	-8.4	-3.3	3.0	-20.1
C/C=C(\C)C(=O)OC(C)(C)[C@H]1Cc2cc3ccc(=O)oc3cc2O1	-0.9	i	5.4	-1.4	1.8	3.7	-4.7	7.0
COc1cc(C(=O)Nc2ccc(NC(=O)C3CC3)nc2)cc(OC)c1OC	11.2	i	12.2	-2.6	-6.6	-3.9	7.0	-5.7
CC(=O)c1cc2c(cc1NS(=O)(=O)c1ccccc1Br)OCO2	-4.2	i	-1.0	1.8	10.5	1.0	-2.3	-8.6
Cc1n[nH]c(=O)c2c(NC(=O)CSc3nnc(-c4ccncc4)n3C)oc(C)c12	-3.8	i	-10.9	-14.7	0.1	1.7	3.6	-17.5
CC1(C)CC(=O)C2=C(C1)Nc1ncnn1C2c1ccccn1 (configuration not stated)	-9.8	i	.	2.2	-7.0	3.4	3.9	-0.9
COc1ccc(Cl)cc1NC(=O)CN(C)C(=O)Cc1ccsc1	-1.6	i	10.7	.	.	4.2	3.5	5.0
O=C(Cn1ccc([N+](=O)[O-])n1)N1CCc2ccccc21	-8.4	i	-8.2	-4.1	-0.5	-0.6	-1.0	-11.2
CN1CCN(CCNC(=O)Nc2ccccc2[N+](=O)[O-])CC1	-12.9	i	2.1	16.7	1.8	-0.5	0.0	-16.7
O=C(NCC1CCS(=O)(=O)C1)NCC1CCS(=O)(=O)C1 (configuration not stated)	-6.8	i	-88.2	-4.4	6.8	1.2	2.2	-3.9
O=C(CSc1nnc(-c2ccncc2)o1)Nc1cc(F)ccc1F	-10.8	.	-25.3	.	.	1.1	4.4	3.1
c1ccc2oc(SCc3cn4ccccc4n3)nc2c1	-12.6	i	.	8.3	3.5	7.5	-1.0	.
CC(C)c1nc(C#N)c(N2CCOCC2)o1	.	i	-27.5	2.9	-7.2	2.7	5.8	-3.3
COc1ccc(S(=O)(=O)N2CCC(C(=O)NCCC(=O)Nc3cccc(Cl)c3)CC2)cc1	2.2	i	18.5	-9.0	-3.4	0.4	-3.9	-8.4
CC(C)C(=O)NC(c1cccc([N+](=O)[O-])c1)c1c(O)ccc2ccccc12 (configuration not stated)	.	i	-11.7	-0.3	-3.5	-6.4	-7.6	.
COCCN(C(=O)Nc1ccc(OC)cc1OC)C1CCN(C(C)C)CC1	5.5	i	.	-8.7	-5.9	1.4	-1.8	.
CCOC(=O)N1CCN(Cc2nc3c(c(=O)n(C)c(=O)n3C)n2CCCc2ccccc2)CC1	-1.7	i	-79.2	5.1	7.3	1.9	2.8	-3.9
COc1ccccc1-c1nnc2sc(COc3ccc(Cl)cc3Cl)nn12	-4.7	i	-22.7	5.2	-4.9	-3.2	-4.4	-16.2
Cc1cc(C)c2c(N)c(C(=O)Nc3nccs3)sc2n1	-1.4	i	-49.7	-5.7	11.8	12.1	-0.9	-72.9
CCOC(=O)c1cnn(-c2ccccc2)c1NC(=O)c1ccccc1C	3.2	i	-16.5	-1.0	6.3	-2.9	1.2	-14.6
CCNc1ccc(C(=O)OCC(=O)NCCN2C(=O)CSC2=O)cc1[N+](=O)[O-]	-6.3	i	5.5	0.7	-11.5	4.6	-1.1	.
Additional results
SMILES	CSC inhib	Rce1 inh	Env fusion inh	eIF4H inh	PABP FP inh	MT1-MMP act inh	MT1-MMP act inh RFP	UUG fidelity	others
CCc1cccc(CC)c1NC(=O)CSc1nc2ccc(N3C(=O)C4C5C=CC(C5)C4C3=O)cc2s1 (configuration not stated)	6.0	i	?	-8.9	-0.1	17.3	-16.7	-3.6
O=C1CCN(Cc2ccccc2)CCN1[C@H](COc1ccccc1)Cc1ccccc1	12.8	i	-1.9	-0.8	4.8	2.6	0.9	18.0
O=C(N/C(=C\c1cccc([N+](=O)[O-])c1)C(=O)N1CCOCC1)c1ccc([N+](=O)[O-])cc1	-2.4	.	9.4	-3.8	-10.3	1.4	0.5	-19.0
O=C(CCN1C(=O)[C@@H]2Cc3ccccc3CN2C1=O)N[C@@H](Cc1ccccc1)C(=O)O	-8.3	i	.	2.1	-1.6	-0.8	4.8	-0.3

Quoted at random: 2 entries already listed.
SMILES	CSC inhib	Rce1 inh	Env fusion inh	eIF4H inh	PABP FP inh	MT1-MMP act inh	MT1-MMP act inh RFP	UUG fidelity	others
COc1ccc(S(=O)(=O)N2CCC(C(=O)NCCC(=O)Nc3cccc(Cl)c3)CC2)cc1	2.2	i	18.5	-9.0	-3.4	0.4	-3.9	-8.4
Cc1noc(C)c1-c1ccc2nc[nH]c(=O)c2c1	-3.7	i	28.3	.	.	4.3	6.0	-10.1
